Screens as filed in PubChem.
gsp antagonist: antagonists of gsp mutant (McCune-Albright syndrome); gsp-mutant cells, cAMP HTRF, 30 min; control for the full effect not named in the record; Potency, µM (top dose mostly 76.9 µM), without a hit: at the top dose activity change, negative = inhibition, hits mostly inhibitors; 0.4% of 340,000 active; active = falling curve of any shape with a large fitted effect; inconclusive = falling curve, mostly with a smaller effect; inactive = flat or rising curve; cell line not stated here;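 further: intracellular cAMP measured with PDE inhibitor Ro 20-1724 present during compound exposure; potency means the concentration at half of the fitted maximal effect; on the % scale 0 is the no-effect control and ±100 the full control effect; nearly all actives have a fitted effect of over 65% in size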
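Cells, 2000/well, grown 16–24 h in DMEM 10% FBS with 0.5 mg/ml G418, then compounds plus […] (300 uM addition stock), 30 min at 37C. cAMP read by HTRF (cAMP-d2 and anti-cAMP antibody-K in lysis buffer) after 30 min RT.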
Sfp inh: inhibitors of Bacillus subtilis Sfp phosphopantetheinyl transferase | Q9F4F7 | Biochemical Sfp PPTase activity, qHTS | Potency, µM, for the others: max response, negative = inhibition, usual class: inhibitors | 3.5% of 310,000 active | AID 1490; active means well fitted inhibition curve with a large enough effect; inconclusive means small, poorly fitted or top-dose-only effect, or another doubt; inactive means no such curve, though single readings can be large or run the other way;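 further: the enzyme is Sfp with the accession as filed and its product quenches rhodamine fluorescence; potency means the concentration at half of the fitted maximal effect; 0% = enzyme reaction without inhibitor and -100% = no enzyme wells; top concentration of the series not given in the record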
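Sfp 15 nM + cpd, 15 min RT; start w/ rhodamine-CoA 5 uM, BHQ-2-YbbR 12.5 uM (final); 50 mM Hepes pH 7.6, 10 mM MgCl2, 0.01% NP-40, 0.01% BSA; read 525/598 nm at 0 and 30 min.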
gsp agonist: agonists of gsp mutant (McCune-Albright syndrome). gsp mutant cells, cAMP HTRF, 30 min; control for the full effect not named in the record. Potency, µM (series often up to 76.9 µM), without a hit: top-dose activation (cAMP increase), hits mostly activators. 0.13% of 340,000 active. AID 624287; active = well fitted activation curve with a large enough effect; inconclusive = small, poorly fitted or top-dose-only effect, or another doubt; inactive = no such curve, though single readings can be large or run the other way; cell line not stated here;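 further: phosphodiesterase inhibitor Ro 20-1724 added with compounds to block cAMP breakdown; potency means the concentration at half of the fitted maximal effect; nearly all actives have a fitted effect of over 60% in size; about a fifth of the inactives were tested at one dose only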
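Cells stably selected in G418 were plated at 2000/well, grown 16-24 hr, then given compounds in DMSO with the PDE inhibitor […] (300 uM solution added) for 30 min at 37C; cAMP was read by HTRF.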
ClpP mod: qHTS Assay for Activators of ClpP; ATP-dependent Clp protease proteolytic subunit (Bacillus subtilis (strain 168)), P80244; purified B. subtilis ClpP, FRET peptide cleavage, 20 min; 1.9% of 340,000 active; Potency, µM (titrated, usually from 57.5 µM), inactives show at the highest dose activity change, negative = active; active = well fitted falling curve with a large enough effect; inconclusive = small, poorly fitted or top-dose-only effect; inactive = no such curve, though single readings can be large or run the other way; further: potency means the concentration at half of the fitted maximal effect; the source files actives as falling curves though it sought activators and does not explain the sign; nearly all actives have a fitted effect of over 65% in size; many hits overshoot -100%
Target sequence (P80244 whole entry, looked up): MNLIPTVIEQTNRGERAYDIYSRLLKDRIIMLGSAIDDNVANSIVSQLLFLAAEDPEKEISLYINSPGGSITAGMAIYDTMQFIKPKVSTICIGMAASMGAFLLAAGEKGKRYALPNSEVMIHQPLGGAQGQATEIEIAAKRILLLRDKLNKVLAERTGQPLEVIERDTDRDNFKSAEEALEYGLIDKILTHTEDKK
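Purified B. subtilis ClpP, 10 microg/mL final in Tris/HCl pH8 with KCl, BSA, glycerol and Tween-20, cleaved an Abz/nitrotyrosine-quenched decapeptide. Fluorescence (ex 320, em 430) was read at 0 and 20 min at room temperature. Delta was normalized to 5.8 microM ADEP and DMSO/no-enzyme controls.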
PINK1 modulator: PINK1 expression modulation. PINK1 immunofluorescence, high-content cytometry, 24 h. Potency, µM (titrated, usually from 76.6 µM), for the others: at the highest dose activation (PINK1 increase), hits mostly activators. 0.2% of 410,000 active. AID 624263; active = well fitted activation curve with a large enough effect; inconclusive = small, poorly fitted or top-dose-only effect; inactive = flat fitted curve, though single readings scatter; cell line not stated here;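 further: potency means the concentration at half of the fitted maximal effect; % of control where 0% means no effect; nearly all actives have a fitted effect of over 65% in size; a mitochondrial uncoupler was the plate control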
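Stable cell line, 250 cells/well, 12 h attachment; compounds pinned at 5 concentrations, 24 h; CCCP control. Fixed with nuclear dye, primary antibodies 12 h at 10 degrees C, secondary plus cell stain; laser-scanning cytometer read.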
Menin-MLL FL inh: inhibitors of human menin-MLL interaction, wild-type MLL peptide; Fluorescence polarization, fluorescein-MLL peptide displacement from menin; AID 1766; 290,000 tested, under 10 active; FP activity change, % at 61.4 µM; inconclusive = falling polarisation curve, or a change in total fluorescence; inactive = total fluorescence flat and polarisation flat or rising; no compound was filed as active; the % refers to the polarisation; negative = inhibition;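 further: % of control where 0% means no effect; inhibitors lower the polarisation; unlabelled MLL peptide was the positive control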
D2 agonist: agonists of human D2 dopamine receptor (beta-arrestin); P14416; DiscoveRx PathHunter D2 beta-arrestin, luminescence, 90 min; 100% = 57 uM dopamine signal; activation, % (test concentration not listed); 0.084% of 360,000 active; AID 624465; in the data active = activation above about 40%; inconclusive = about 15% to 40%; inactive = below about 15%; further: compound concentration not given in the record; the text of the record calls up to 30% inactive
Target sequence (P14416 whole entry, looked up): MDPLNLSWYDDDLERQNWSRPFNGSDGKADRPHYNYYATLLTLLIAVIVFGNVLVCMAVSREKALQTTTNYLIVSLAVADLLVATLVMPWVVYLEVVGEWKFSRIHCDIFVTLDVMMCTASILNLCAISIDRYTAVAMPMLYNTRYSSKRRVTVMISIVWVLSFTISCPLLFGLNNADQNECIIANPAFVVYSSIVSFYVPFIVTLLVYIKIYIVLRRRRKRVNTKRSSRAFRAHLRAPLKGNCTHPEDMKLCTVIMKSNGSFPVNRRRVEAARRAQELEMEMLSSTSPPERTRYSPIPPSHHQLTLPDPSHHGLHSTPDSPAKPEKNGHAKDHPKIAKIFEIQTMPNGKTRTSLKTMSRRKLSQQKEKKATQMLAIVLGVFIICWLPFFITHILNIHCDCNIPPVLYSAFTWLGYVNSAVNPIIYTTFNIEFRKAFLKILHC
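Agonist mode: compounds alone added to overnight-plated D2 PathHunter cells for 90 min at 37 C, with 57 uM final dopamine (EC100) defining full response. Beta-arrestin recruitment detected by chemiluminescent reagent, read after 1 h at ambient temperature.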
Numbers without * were called inactive; ? = inconclusive; . = not tested or not shown; [ ] = another dose, or the depositor's remark. Hits appear at their usual frequency. About 5.1% of those tested had a hit in this group.

Every second line gives: gsp antagonist | Sfp inh | gsp agonist | ClpP mod | PINK1 modulator | Menin-MLL FL inh | D2 agonist
1) O=C(/C=C/c1cccc(Br)c1)Nc1nn[nH]n1
→ 6% | ? | 21%[15.4 µM] | . | -2.4% | -8.1 | 0.8
2) CC(=O)N1CCc2cc(S(=O)(=O)CCC(=O)N3CCN(c4ccccc4)CC3)ccc21
→ 3% | -2% | 7% | 1.5% | -1.6% | . | -2.6
3) CCc1nnc(NC(=O)c2c(-c3ccccc3)noc2C)s1
→ 6% | -8% | ? | . | -1.1% | . | -4.6
4) Cc1ccc(NC(=S)N2CCN(CCN3C(=O)c4cccc5cccc(c45)C3=O)CC2)cc1
→ -6% | -1% | -1% | -16% | 5.0% | 0.2 | -2.5
5) CC(C)NC(=O)CCCN1C(=O)c2ccccc2Sc2ncccc21
→ 15% | 16% | ? | -0.2% | -2.0% | 4.8 | -0.8
6) COc1cccc(CN2CCC2(C)C(=O)Nc2ccc(C)c(O)c2)c1F (centres undefined)
→ . | . | . | -2.9% | 1.2% | . | 5.5
7) O=C(NC1CCCC1)C1CCCN1C(=O)Nc1ccccc1Cl (centres undefined)
→ 18% | 17% | -5%[15.4 µM] | 1.3% | -0.4% | 2.0 | -5.9
8) O=C(O)c1nn(CCOc2ccccc2F)c(=O)c2ccccc12
→ 9% | -7% | 26%[15.4 µM] | . | 2.8% | -2.1 | -7.6
9) NS(=O)(=O)c1ccc2nc(NC(=O)C3=COCCO3)sc2c1
→ 3% | 0% | 28% | -11% | -0.1% | -3.9 | -1.0
10) O=C1CCC/C=C\C[C@@H](CC(=O)N(CCO)Cc2ccccc2)C(=O)N2CCC[C@H]2CO1
→ 17% | . | -12% | -2.1% | 0.9% | . | -2.8
11) O=C(Cn1c(=O)cnc2ccccc21)N1CCCc2ccccc21
→ -6% | 3% | 8%[15.4 µM] | . | 0.4% | 1.2 | -4.9
12) CC(C)c1nnc(NC(=O)CCS(=O)(=O)c2nc(-c3cccs3)cc(C(F)(F)F)n2)s1
→ 8% | -20% | 13% | 134% | -7.1% | 7.5 | -7.7
13) CC(=O)N1CCCc2cc(S(=O)(=O)Nc3ccc4c(c3)OCO4)ccc21
→ -8% | -6% | -47%[inhibitor] | -2.5% | -0.5% | 0.3 | 0.0
14) CCOc1ccc(Cl)cc1S(=O)(=O)N1CCC(C(=O)NCc2ccncc2)CC1
→ 0% | -4% | ? | . | 1.8% | -1.9 | 1.8
15) Oc1ccccc1N=Cc1c(O)ccc2ccccc12
→ -15% | -1% | -3% | -0.7% | 1.1% | ? | 8.1
16) O=C(O)C1CCCCC1C(=O)NC(c1ccccc1)c1ccccc1 (centres undefined)
→ -2% | 4% | 23%[15.4 µM] | . | -0.9% | 1.9 | 1.0
17) Cc1ccc(Cl)cc1NC(C#N)c1ccccc1 (centres undefined)
→ -8% | 5% | -29%[15.4 µM] | . | 8.3% | -2.9 | -2.7
18) COc1cc(Cl)c(C)cc1NC(=O)COC(=O)C1=COCCO1
→ -8% | . | 30%[15.4 µM] | -2.2% | 1.7% | . | -4.6
19) COc1cccc(C(=S)N2CCCC2)c1OC
→ 0% | 50µM* | -46%[inhibitor] | 1.4% | 0.4% | 1.5 | -3.2
20) Cc1cccc2cc3c(nc12)SC(=NCC1CCCO1)N(Cc1ccco1)C3 (centres undefined)
→ 13% | 3.5µM* | ? | ? | 1.6% | 12 | -3.5
21) O=C(NCc1ccco1)Nc1ccc(Br)cc1
→ -5%[15.4 µM] | 25% | -1% | -3.5% | 1.4% | 2.4 | -1.1
22) COc1ccc(NC(=O)c2cccc(F)c2)cc1Cl
→ 6% | 7% | -38%[inhibitor] | ? | 1.1% | -0.5 | -3.0
23) Cn1c(=O)c2ncn(CC(=O)N/N=C/c3ccco3)c2n(C)c1=O
→ 18% | 11% | 36%[15.4 µM] | . | 0.7% | 2.1 | -2.2
24) Cc1cc(NCc2ccc(F)cc2Cl)n2nnnc2n1
→ 5% | 1% | 0% | ? | 2.6% | 7.1 | -1.3
25) CCCn1c(=O)c2ccccc2n2c(SCCOc3ccccc3)nnc12
→ -15% | -6% | 14% | -6.3% | . | -3.8 | -4.4
26) O=C(CN1CCCCCC1)Nc1cccc([N+](=O)[O-])c1
→ 5% | 14% | ? | -1.1% | 3.0% | 1.3 | -5.6
27) COc1ccc(S(=O)(=O)n2nc(C)cc2C)c(C)c1C
→ -25% | 4% | -2% | 1.1% | -0.2%[38.3 µM] | -0.4 | -1.9
28) c1ccc2c(c1)c1ccccc1n1c(-c3ccc4c(c3)OCO4)nnc21
→ 9% | 13% | -5%[15.4 µM] | 0.0% | -1.8% | 0.5 | -3.8
29) O=C(NCc1ccc2c(c1)OCO2)c1cccc(Cl)c1
→ 0% | 22% | -30% | 1.2% | -1.0% | ? | -2.1
30) O=C1CSc2ccc(C(=O)NCCC3=CCCCC3)cc2N1
→ 3% | 24% | -14% | -2.0% | -2.8%[38.3 µM] | -1.7 | -0.5
31) O/N=C1/C2C3CC4C5C3C1C5C1(OCCO1)C42 (centres undefined)
→ 11% | ? | -31%[inhibitor] | 0.6% | 4.9%[38.3 µM] | 7.4 | 2.8
32) COc1ccc(OC)c(NC(=O)C2CCCN2C(=O)OCc2ccccc2)c1 (centres undefined)
→ 6% | -2% | 2% | 0.8% | 2.5% | 0.2 | -6.1
33) Cc1ccc(C)c(C(C)NC(=S)NCc2ccc(F)cc2)c1 (centres undefined)
→ -13% | 19% | ? | 0.2% | ? | 6.1 | -2.5
34) O=c1[nH]cnc2scc(-c3ccc(-c4ccccc4)cc3)c12
→ -4% | -10% | 18% | 1.0% | 12% | 3.6 | 0.3
35) Cc1cc(NC(=O)COC(=O)CNS(=O)(=O)c2c(F)cc(F)cc2Br)no1
→ -5% | . | 8% | . | -1.0% | . | 3.7
36) CC(=O)c1ccc(NC(=O)/C(=C\c2cccs2)NC(=O)c2ccco2)cc1
→ -21% | 4% | 44%[15.4 µM] | . | 7.6% | -7.9 | -3.9
37) CCOc1ccc(CC(=O)N2CCN=C2SCc2ccc([N+](=O)[O-])cc2)cc1
→ -6% | 13% | -1%[15.4 µM] | . | -0.2% | -1.3 | -3.2
38) O=C(Nc1nc2ccccc2[nH]1)NC1CCCCC1
→ 5% | 13% | 5% | 1.6% | 5.1% | 0.1 | 5.9
39) COc1ccc(-c2nc(-c3ccc(Br)o3)no2)cc1
→ 4% | -6% | -7% | -3.4% | 0.5% | -3.1 | -5.7
40) CCn1c(SCc2ccc([N+](=O)[O-])cc2)nnc1C(C)NC(=O)c1ccc(C)cc1 (centres undefined)
→ -1% | 18% | -21% | 1.6% | 0.5% | 1.5 | -1.5
41) Cc1ccc(C)c(NC(=O)C2CC(=O)N(C3CCCCC3)C2)c1 (centres undefined)
→ 4% | 7% | 20% | . | -0.6% | -2.7 | -4.4
42) Cc1ncn(C23CC4CC(CC(O)(C4)C2)C3)n1
→ 9% | 18% | ? | -1.5% | -0.9% | -2.7 | -0.1
43) Cc1ccc(-n2c(N)c(C(=O)Nc3c(C)n(C)n(-c4ccccc4)c3=O)c3nc4ccccc4nc32)cc1
→ -23% | -15% | -6%[15.4 µM] | -0.3% | -3.3% | 2.1 | -0.2
44) COc1cc(/C=N/Nc2nc(C)nc3c2cnn3-c2ccccc2)ccc1O
→ 15% | 1% | -57%[inhibitor] | ? | 0.1% | 5.4 | 0.9
45) O=C(NC(=S)Nc1ccc(N2CCOCC2)cc1)c1ccc2c(c1)OCCO2
→ -20% | -9% | 3% | 27% | 7.2% | 7.8 | 0.5
46) Cc1cc(NC(=O)CSc2nc(=O)cc(N)n2-c2ccc(C)c(C)c2)no1
→ 8% | 1% | -16% | -0.3% | -0.9% | . | -3.7
47) CCCNC(=O)c1cc(C2CCCCN2C(=O)c2cc(OC)c(C)c(OC)c2)on1 (centres undefined)
→ . | . | . | -0.4% | 0.9% | . | 6.5
48) C#CCn1cnc2c(oc3ccccc32)c1=O
→ 0% | 6% | 12% | 0.3% | 0.7% | -5.5 | 8.8
49) CCC(c1nnnn1Cc1ccco1)N(CCc1ccccc1)Cc1cc2cccc(C)c2[nH]c1=O (centres undefined)
→ -13% | 25µM* | -1% | -0.5% | 1.9% | 11 | -1.0
50) CN(CC(=O)Nc1ccccc1Br)C(=O)c1ccccc1Cc1ccccc1
→ -26% | . | -21% | 0.5% | 0.6% | . | -4.5
51) COCCCNC(=O)C(C#N)c1nc2ccccc2nc1N1CCN(Cc2ccccc2)CC1 (centres undefined)
→ -7% | 0% | -50% | 0.0% | -1.4% | ? | -2.3
52) CCOc1nc(Nc2cc(Cl)ccc2OC)nc(OCC)n1
→ 6% | -8% | 12% | 5.3% | 2.0% | 3.5 | 0.5
53) Cc1ccc(NC(=O)COc2cccc3c2OC(C)(C)C3)c(O)c1
→ -10% | . | -3% | 1.0% | -2.2% | . | -1.8
54) CN(C)P(=NC(=O)COc1ccc(Cl)cc1Cl)(N(C)C)N(C)C
→ 2% | 10% | -26% | 0.7% | 0.3%[38.3 µM] | 8.0 | -1.5
55) COc1ccnc(CSC(N)=Nc2ccccc2OC)c1
→ -5% | 32µM* | -29% | -3.9% | -1.5% | -0.4 | -5.3
56) CCOC(=O)N1CCN(Cc2nc3c(c(=O)[nH]c(=O)n3C)n2CCCc2ccccc2)CC1
→ -22% | 24% | -12% | -1.8% | 1.5%[38.3 µM] | 2.1 | 0.5
57) O=C(NC1CCN(c2ncccn2)CC1)c1ccccc1Cl
→ -1% | 0% | -13% | -18% | 0.5% | -10 | -1.6
58) CC12CN3CC(C)(CN(C1)C3c1cc(Br)ccc1O)C2=O (centres undefined)
→ -15% | 5% | -35%[inhibitor] | 1.8% | -1.2% | -0.7 | -0.3
